Compound activity from PubChem BioAssay.
Cruzain inh noDet: qHTS Assay for Promiscuous and Specific Inhibitors of Cruzain (without detergent); Cruzipain (Trypanosoma cruzi), P25779; purified cruzain, Z-FR-AMC fluorescence, no detergent; Potency, µM, for inactives: max response, negative = inhibition, usual class: inhibitors; 2.3% of 200,000 active; AID 1476, 2009; active = well fitted curve in the direction sought with a large enough effect; inconclusive = small, poorly fitted or top-dose-only effect, or another doubt; inactive = no such curve, though single readings can be large; an effect the other way counts as inactive or inconclusive;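 also: plate controls were enzyme without inhibitor for no effect and buffer without enzyme for full effect; nearly all actives have a fitted effect of over 40% in size; top concentration of the series not given in the record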
Target sequence (P25779 123-467 limits assumed): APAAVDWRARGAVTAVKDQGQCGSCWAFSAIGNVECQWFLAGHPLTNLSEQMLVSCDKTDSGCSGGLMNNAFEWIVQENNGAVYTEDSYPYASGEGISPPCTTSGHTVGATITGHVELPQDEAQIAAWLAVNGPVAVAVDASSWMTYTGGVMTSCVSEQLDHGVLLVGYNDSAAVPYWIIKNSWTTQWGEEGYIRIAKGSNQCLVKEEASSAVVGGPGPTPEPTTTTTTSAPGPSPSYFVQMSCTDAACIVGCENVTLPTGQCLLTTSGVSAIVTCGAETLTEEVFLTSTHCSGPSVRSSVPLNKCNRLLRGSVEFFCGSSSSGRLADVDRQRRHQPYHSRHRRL
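Purified cruzain at 1.5 nM, pre-incubated 15 min with compound at room temperature in 100 mM sodium acetate pH 5.5, 5 mM DTT, 0.00005% Triton X-100. Reaction started with 2 uM Z-FR-AMC; AMC fluorescence increase over 60 s gives rate.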
RE007 growth inh: qHTS Assay for Inhibitors of the HIV-1 protein Vpr | S. pombe RE007 Vpr strain, BacTiter-Glo ATP luminescence, 24 h; control for the full effect not named in the record | 0.21% of 360,000 active | Potency, µM (highest dose often 92.2 µM), for the others: top-dose activity change, negative = less growth; active = well fitted falling curve with a large enough effect; inconclusive = small, poorly fitted or top-dose-only effect; inactive = no such curve, though single readings can be large or run the other way;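 also: % is scaled to controls: 0 for no effect and ±100 for the full control effect; nearly all actives have a fitted effect of over 50% in size; the assay follows cell death caused by Vpr and the record does not say whether a fall means rescue or toxicity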
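Fission yeast strain RE007, carrying one chromosomally integrated HIV-1 vpr copy, was seeded at OD 0.01 in PMG+AL medium with 23 nL pinned compound. After 24 h at 30 °C and 99% humidity, viability was read by BacTiter-Glo luminescence.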
Cruzain Triton: qHTS Assay for Promiscuous and Specific Inhibitors of Cruzain (with detergent); 0.43% of 200,000 active; Cruzipain (Trypanosoma cruzi), P25779; Potency, µM, without a hit: max response, negative = inhibition, most hits filed as inhibitors; purified cruzain, Z-FR-AMC fluorescence, 0.01% Triton; active = well fitted curve in the direction sought with a large enough effect; inconclusive = small, poorly fitted or top-dose-only effect, or another doubt; inactive = no such curve, though single readings can be large; an effect the other way counts as inactive or inconclusive;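 also: plate controls were neutral wells for no effect and buffer without enzyme for full effect; nearly all actives have a fitted effect of over 40% in size; top concentration of the series not given in the record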
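Cruzain (1.5 nM) preincubated 15 min at RT with compound in 100 mM sodium acetate pH 5.5, 5 mM DTT, 0.01% Triton X-100. Reaction started with 2 uM Z-FR-AMC; AMC fluorescence (ex 360/em 450 nm) change over 60 s gave rate.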
SARS PLP yeast: qHTS of Yeast-based Assay for SARS-CoV PLP. S. cerevisiae expressing SARS-CoV PLpro, growth rescue; control for the full effect not named in the record. Potency, µM (top dose mostly 32.9 µM), without a hit: top-dose activity, positive = growth rescue. 0.19% of 330,000 active; also: 0% is about no effect; nearly all actives have a fitted effect of over 55% in size; growth read by luminescence after 48 h
NS1 function inh: qHTS Assay for Inhibitors of Influenza NS1 Protein Function; AID 2326, 2010; 0.4% of 270,000 active; Potency, µM (series often up to 46.1 µM), for inactives: top-dose activity, positive = more growth; S. cerevisiae slowed by influenza A NS1, growth recovery by OD600; also: actives are rising curves; nearly all actives have a fitted effect of over 50% in size
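Read-out: OD600 growth recovery of NS1-expressing budding yeast. Cells grown overnight at 30C in -URA glucose medium, washed, resuspended and diluted 1:100 in 2% galactose assay medium, pH 6.0. Same strain lacking NS1 served as positive control.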
StopGo reporter: High Throughput Screening for Foot and Mouth Disease Virus Antivirals; Potency, µM (series often up to 57.9 µM), for the others: at the highest dose signal change, negative = less light; human cells with a luciferase reporter of 2A StopGo recoding; control for the full effect not named in the record; AID 1159524, 2015; 1.2% of 410,000 active; active = well fitted falling curve with a large enough effect; inconclusive = small, poorly fitted or top-dose-only effect; inactive = no such curve, though single readings can be large or run the other way; tested in HEK293T cells; also: % is scaled to controls: 0 for no effect and ±100 for the full control effect; nearly all actives have a fitted effect of over 45% in size; luciferase light after 4 h
Marburg entry inh: qHTS for inhibitors of binding or entry into cells for Marburg Virus. Marburg virus pseudotyped entry inhibition, cell reporter; control for the full effect not named in the record; about a third of the inactives were read at about 46 µM. Potency, µM (titrated, usually from 37.8 µM), without a hit: top-dose activity change, negative = inhibition, actives largely listed as inhibitors. 1.8% of 300,000 active; active = well fitted inhibition curve with a large enough effect; inconclusive = small, poorly fitted or top-dose-only effect, or effect the other way; inactive = flat fitted curve, though single readings scatter; tested in HEK293 cells; about a fifth of its hits are not listed in these tables; also: % is scaled to controls: 0 for no effect and ±100 for the full control effect; luciferase read-out
Lassa entry inh: qHTS for Inhibitors of binding or entry into cells for Lassa Virus; Lassa virus pseudotype entry inhibition, cell reporter; control for the full effect not named in the record; Potency, µM (doses to about 37.9 µM), inactives show at the highest dose activity change, negative = inhibition, usual class: inhibitors; 1.2% of 300,000 active; active means well fitted inhibition curve with a large enough effect; inconclusive means small, poorly fitted or top-dose-only effect, or effect the other way; inactive means flat fitted curve, though single readings scatter; tested in HEK293 cells; also: % is scaled to controls: 0 for no effect and ±100 for the full control effect; nearly all actives have a fitted effect of over 50% in size; luciferase read-out
An asterisk follows results filed as active; ? = inconclusive; nt = no result given; & = joins results of further samples; [ ] = remark or other dose. Unless noted, calls follow the shape of the dose curve; as a rule, active means well fitted rising curve with a large enough effect; inconclusive means small, poorly fitted or top-dose-only effect; inactive means no such curve, though single readings can be large or run the other way. Potency is read from the fitted curve at half-maximal effect. An unsorted share of the library; 4.7% or so of the library scored in one or more.

molecule	Cruzain inh noDet	RE007 growth inh	Cruzain Triton	SARS PLP yeast	NS1 function inh	StopGo reporter	Marburg entry inh	Lassa entry inh
O=C(NCCN1CCOCC1)c1cc(-c2ccc(Cl)s2)nc2ccccc12	nt	-14%	nt	-3%	-2%	10%	0%[46.1 µM]	6%
O=C(NCC1CCCO1)C(C(=O)c1ccccc1)n1cc(Cl)ccc1=O (stereo not given)	-6%	8%	2.6%	-1%	?	3%	?	-22%
O=C(NCc1ccco1)c1cc([N+](=O)[O-])ccc1N1CCOCC1	nt	-1%	nt	0%	2%	-7%	nt	nt
O=C1NC(=O)C(c2ccccc2)(c2ccc(Cl)cc2Cl)N1 (stereo not given)	nt	-1%	nt	nt	nt	-5%	-2%[46.1 µM]	19%[46.1 µM]
COc1cc2cc(CN(CCN3CCOCC3)C(=O)Nc3ccc(F)cc3)c(=O)[nH]c2cc1OC	nt	-5%	nt	-2%	-4%	-2%	nt	nt
CC(C)c1ccc(N2CC(C(=O)Nc3nccs3)CC2=O)cc1 (stereo not given)	-3%	-5%	-4.9%	0%	3%	12%	0%	-2%
COc1ccccc1NC(=O)N(Cc1ccc2c(c1)OCO2)Cc1nc2ccccc2c(=O)[nH]1	-4%	1%	-2.9%	-4%	-2%	7%	-7%	9%
COc1cccc(Nc2nc3cc(OC)ccc3cc2C#N)c1	nt	4%	nt	2%	4%	15%	6%[46.1 µM]	3%[46.1 µM]
Cc1ccc(N=Cc2c(O)c3ccccc3n(C)c2=O)cc1	nt	-10%	nt	0%	-10%	25%	7%	13%
Fc1ccc(NC(=S)N2CCN(c3cccc(C(F)(F)F)c3)CC2)cc1	-2%	-15%	-5.8%	-32%	2%	?	?	?
CC(C)c1ccc(OCC(=O)NCCS(=O)(=O)N2CCN(c3ccc(F)cc3)CC2)cc1	8%	nt	-0.4%	nt	nt	0%	nt	-4%[46.1 µM]
CC(C)CC(=O)N(Cc1ccc(F)cc1)C1CCS(=O)(=O)C1 (stereo not given)	nt	2%	nt	2%	-8%	0%	1%[46.1 µM]	-17%[46.1 µM]
CCn1c(SCC(=O)Nc2ccc(C(=O)OC)cc2)nnc1-c1cccs1	-6%	3%	-1.6%	-3%	1%	-21%	-22%	4%
CCC(C)NC(=O)/C=C1\Sc2ccccc2NC1=O (stereo not given)	3%	-4%	-10%	19%	6%	20%	-6%	12%
CCOC(=O)Cn1cnc2c(cnn2-c2ccccc2)c1=O	nt	10%	nt	4%	2%	26%	nt	nt
CCOC(=O)Nc1ccc(OC)cc1S(=O)(=O)N1CCCCC1	-8%	6%	13%	2%	-4%	0%	-2%	-9%
Cc1nc(SCC(=O)NC2CCS(=O)(=O)C2)c2c3c(sc2n1)CCCC3 (stereo not given)	nt	0%	nt	2%	nt	-22%	0%	-2%[46.1 µM]
CCOc1cc(C)c(C(C)C)cc1S(=O)(=O)NCc1ccccn1	8%	10%	2.5%	nt	-66%	130%[activator]	14%	-1%
Cc1cc(-c2ccc(C(C)C)c(S(=O)(=O)N3CCC(C)CC3)c2)on1	nt	1%	nt	-2%	-5%	-18%	nt	nt
COc1ccc(Br)cc1CNc1ccc2[nH]c(=O)[nH]c2c1	nt	5%	nt	-2%	9%	-20%	-1%&-1%[46.1 µM]	?
Cc1[nH]c2ccccc2c1C(c1ccncc1)N1CCN(c2ccc(F)cc2)CC1 (stereo not given)	12%	-5%	-2.0%	12%	7%	0%	?	-10%
Cc1ccc(-c2nn(-c3ccc(F)cc3)c3c2cnc2cc(F)c(F)cc23)cc1	6%	nt	-0.6%	nt	nt	-7%	4%[46.1 µM]	-5%[46.1 µM]
COc1ccc(CCNC(=O)CCc2ccc(S(=O)(=O)NCC(C)C)cc2)cc1OC	nt	-12%	nt	1%	2%	-2%	?	-1%[46.1 µM]
CC1(C)Cc2c(sc(/N=C/N3CCCCCC3)c2C#N)C(C)(C)N1	nt	13%	nt	-1%	nt	13%	?	2%
COc1cccc(OCc2cc(C(=O)NCc3cnc4ccccn34)no2)c1	nt	-14%	nt	-6%	8%	?	nt	nt
O=C(Nc1ccc2c(c1)OCO2)Nc1ccccc1F	nt	-21%	nt	-14%	-6%	0%	nt	nt
Cc1ccc(N2CCN(C(=O)NC3CCCCC3)CC2)c(C)c1	nt	18%	nt	1%	-6%	-21%	?	1%[46.1 µM]
CS(=O)(=O)N1N=C(c2ccco2)CC1c1cccc([N+](=O)[O-])c1 (stereo not given)	nt	12%	nt	1%	4%	-8%	nt	nt
CN(c1ccccc1)c1nc(N)c([N+](=O)[O-])c(NCc2ccco2)n1	-21%	-17%	-6.5%	-1%	-11%	-5%	-9%	4%
CC1(c2ccc3ccccc3c2)NC(=O)N(CC(=O)N2CCC(C(N)=O)CC2)C1=O (stereo not given)	nt	8%	nt	1%	nt	-18%	8%[46.1 µM]	?
CCC(=O)N1c2ccccc2CC1C(=O)NCc1ccc(OC(C)C)cc1 (stereo not given)	-7%	nt	-0.6%	nt	nt	?	nt	4%[46.1 µM]
Cc1cccn2c(=O)cc(COc3cccc(NC(=O)COc4ccc(F)cc4)c3)nc12	10%	nt	-2.1%	nt	nt	?	nt	-12%[46.1 µM]
O=C(CSc1nc2ccccc2[nH]1)c1cccs1	-7%	?	-0.1%	-2%	-14%	29%	?	?
Cc1noc(C)c1S(=O)(=O)N1CCCC(C(=O)c2cccc(OC(C)C)c2)C1 (stereo not given)	nt	9%	nt	0%	-1%	?	0%[46.1 µM]	?
Cn1c(=O)n(CCc2ccccc2)c(=O)c2c1nc1n2CCN1c1ccc(Cl)cc1	-2%	nt	-3.0%	nt	nt	-10%	nt	8%[46.1 µM]
Cc1[nH]c(=O)c(C#N)c(C)c1CCC(=O)NCc1ccc(Cl)cc1	nt	14%	nt	-2%	4%	7%	?	3%[46.1 µM]
CC(=O)c1ccc(N2CCN(C(=O)c3cc(-c4ccncc4)nc4ccc(Br)cc34)CC2)cc1	nt	-2%	nt	-4%	5%	-14%	?	-43%
CC(C)C(=O)Nc1ccc(C(=O)NNC(=O)NC2CCCCC2)cc1	7%	4%	5.4%	-3%	8%	52%[activator]	-21%	9%
CCn1cc(CNC(=O)c2cc(COc3ccc(F)cc3Cl)on2)cn1	nt	-1%	nt	-1%	3%	-25%	15µM*	?
Cc1nc(SCC(=O)NC(C)(C)C)c2c(-c3cccs3)csc2n1	-1%	2%	-6.7%	21%	-7%	?	?	?
CC(=O)CCS(=O)(=O)c1ccc(Oc2ccc(S(=O)(=O)CCC(C)=O)cc2)cc1	-11%	-16%	-0.2%	5%	-14%	?	?	-10%
O=C(NCCS(=O)(=O)N1CCN(c2cccc(Cl)c2)CC1)C1CC1	nt	6%	nt	-4%	nt	-12%	-2%	11%
O=C(CN1CCCCCC1)Nc1ccc(F)c(F)c1F	7%	22%[3.69 µM]	3.5%	-3%	-7%	10%	15%	3%
C[C@@]12CCC3[C@@](CC[C@@H]4[C@](C)(C(=O)O)CCC[C@@]34C)(C[C@H]1O)C2 (stereo not given in full)	nt	5%	nt	-2%	-6%	-7%	nt	nt
Cc1ccccc1NC1(C#N)C(=O)Nc2ccccc21 (stereo not given)	-5%	26%	-5.8%	-4%	-5%	-27%	-4%	-8%
O=C(NCCN1CCCCC1)c1ccc(Cn2c(SCc3cccc(F)c3)nc3cccnc32)cc1	-10%	nt	-11%	nt	nt	-10%	4.5µM*	nt
O=C(O)/C=C/C(=O)NCc1ccccc1	8%	-13%	1.3%	-37%	1%	-15%	11%	-2%
O=C1N(S(=O)(=O)c2ccccc2F)C(=O)C2(CCCC2)N1S(=O)(=O)c1ccccc1F	-3%	23%	-1.0%	2%	-4%	13%	1%	12%
Cc1ccc(C)c(C(C)NC(=O)C2CCCC2)c1 (stereo not given)	nt	3%	nt	2%	4%	-12%	-12%	10%
O=c1c([N+](=O)[O-])cccn1Cc1cccc(Br)c1	nt	5%	nt	-2%	7%	-2%	14%[46.1 µM]	19%[46.1 µM]

Later entries:
molecule	Cruzain inh noDet	RE007 growth inh	Cruzain Triton	SARS PLP yeast	NS1 function inh	StopGo reporter	Marburg entry inh	Lassa entry inh
O=C(Oc1cccnc1)c1ccccc1[N+](=O)[O-]	-8%	-18%	-2.8%	-7%	-7%	-9%	24%	0%
COc1ccc(OC)c(-c2csc(NC(=O)Cc3cccs3)n2)c1	nt	-6%	nt	-10%	nt	26%	-8%	0.32µM*
COC(=O)c1c(C(=O)OC)c2ccncn2c1Cl	-4%	-2%	-0.1%	5%	-3%	-19%	?	2%
Cn1cc([N+](=O)[O-])c(C(=O)NCc2ccco2)n1	nt	21%	nt	0%	nt	-2%	4%[46.1 µM]	?
Cc1cccc(NC(=O)COc2cccc3c2CCN(Cc2ccccc2)C3=O)c1C	14%	0%	3.5%	15%	-11%	?	?	1%
CCOC(=O)Nc1ccc(N2CCOCC2)c(S(=O)(=O)N2CCOCC2)c1	nt	1%	nt	-6%	-4%	-9%	-2%	1%
COc1cccc(/C=N/n2c(=S)n(C)c3ccccc32)c1OC	0%	0%[3.69 µM]	-1.0%	-1%	-5%	-8%	9%	2%
COc1ccccc1C(=O)NCCC(=O)Nc1cccc(C)n1	nt	-7%	nt	-5%	-11%	10%	nt	nt
